Assay outcomes: PubChem, several laboratories
Yeast UUG start – modulators of yeast start codon fidelity, primary screen, whole organism, S. cerevisiae, single point, plate reader; S. cerevisiae UUG-firefly luciferase reporter, luminescence/redox ratio; AID 602363, 2012; activity score, % at 18.7 µM; 350,000 tested, 0.13% active;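 active = replicate mean at a twofold rise or more, about +100% in these data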;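 also: firefly luciferase made from a UUG start codon reports start codon fidelity; reporter light over untreated wells divided by growth signal over untreated wells; some hits fall short of that in this replicate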
eIF4H inh – human eIF4H binding inhibitors, primary screen, translation initiation inhibitor project, biochemical, uHTS, fluorescence polarization; Eukaryotic translation initiation factor 4H (Homo sapiens), Q15056; eIF4H fluorescence polarization binding assay; inhibition, % at 35 µM; 290,000 tested, 0.94% active; AID 2012, 2009;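 active = 50% or more with normal probe brightness, or confirmed in later tests; inconclusive = above 50% with abnormal brightness, or retests that disagree; inactive = below 50% or failed in later tests; about a fifth of its hits are not listed in these tables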;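 also: calls also rest on retests at 20 µM and on dose response follow-up; 0% = protein and probe with vehicle and 100% = probe without protein; strong numbers were not always called active; many hits fall short of the cut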
CSC inhib – cancer stem cell viability inhibitors, primary screen, luminescence; AID 2717, 2010; 300,000 tested, 1.1% active; inhibition, % at 7.5 µM; cancer stem cell-like cells viability;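 active = mean at 75% or more and at least half the replicates too; inconclusive = mean and replicates disagree; tested in HMLE shEcad cells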;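 also: 0% = median of negative and 100% = median of positive control wells; the first replicate is given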
MT1-MMP act inh – blockers of MT1-MMP proenzyme processing, primary screen, HT1080 RFP-PRO-GFP cells, GFP/RFP fluorescence; 360,000 tested, 0.061% active; GFP/RFP ratio change, % at 20 µM; GFP/RFP ratio fluorescence, overnight; percent of plate control window, DMSO zero; AID 651647, 2012;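 active = GFP/RFP ratio change of at least 30% with cell ATP level not reduced by more than half and red fluorescence within 50% of control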; also: strong numbers were not always called active
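Assay system: RFP-PRO-GFP reporter HT1080 cells; read-out basis: GFP/RFP fluorescence ratio; benchmarks: DMSO wells and RFP-L50D-GFP cells; doses: 20 µM single dose, 1% DMSO; schedule: overnight cell settling, then overnight compound exposure, 37 °C, 5% CO2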
HIV Env fusion – inhibitors of HIV-1 Env-driven cell-cell fusion, primary screen, HeLa-JRFL effector, CEM21 target cells, luciferase | inhibition, % at 12.3 µM | 360,000 tested, 1.1% active | AID 651610, 2012;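 active = mean replicate inhibition score of at least 50 and every replicate individually at or above 50; inconclusive = only one of the two criteria met; inactive = mean below 50 and not all replicates reaching 50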;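 also: 0% = plate neutral controls and 100% = maraviroc near 300 nM; one replicate is shown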
Rce1 inhib – yeast Rce1p protease inhibitors, primary screen, biochemical, fluorescence, cell-free homogeneous; calls only; CAAX prenyl protease 2 (Saccharomyces cerevisiae (strain ATCC 204508 / S288c)), Q03530; yeast membranes, quenched prenylated peptide cleavage fluorescence; 290,000 tested, 0.27% active;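 active = fall in fluorescence gain of 50% or more versus controls, with final raw signal at or below 3038400; inconclusive = same 50% fall but final raw signal above 3038400; inactive = fall in fluorescence gain under 50%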;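 also: plate controls were neutral control wells for no effect and wells lacking membranes for full effect; tested at 10 µM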
PABP polyA inh – PABP poly(A) RNA binding inhibitors, primary screen, biochemical, fluorescence polarization, uHTS | inhibition, % at 35 µM | 290,000 tested, 1% active | AID 2014, 2009;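 active = 50% or more with normal probe brightness, or confirmed in later tests; inconclusive = above 50% with abnormal brightness, or retests that disagree; inactive = below 50% or failed in later tests; about a fifth of its hits are not listed in these tables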;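 also: calls also rest on retests at 20 µM and on dose response follow-up; controls were probe without protein and protein plus probe with vehicle; some compounds called inactive have numbers as strong as hits; many hits fall short of the cut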
Target sequence (P11940 whole entry, looked up): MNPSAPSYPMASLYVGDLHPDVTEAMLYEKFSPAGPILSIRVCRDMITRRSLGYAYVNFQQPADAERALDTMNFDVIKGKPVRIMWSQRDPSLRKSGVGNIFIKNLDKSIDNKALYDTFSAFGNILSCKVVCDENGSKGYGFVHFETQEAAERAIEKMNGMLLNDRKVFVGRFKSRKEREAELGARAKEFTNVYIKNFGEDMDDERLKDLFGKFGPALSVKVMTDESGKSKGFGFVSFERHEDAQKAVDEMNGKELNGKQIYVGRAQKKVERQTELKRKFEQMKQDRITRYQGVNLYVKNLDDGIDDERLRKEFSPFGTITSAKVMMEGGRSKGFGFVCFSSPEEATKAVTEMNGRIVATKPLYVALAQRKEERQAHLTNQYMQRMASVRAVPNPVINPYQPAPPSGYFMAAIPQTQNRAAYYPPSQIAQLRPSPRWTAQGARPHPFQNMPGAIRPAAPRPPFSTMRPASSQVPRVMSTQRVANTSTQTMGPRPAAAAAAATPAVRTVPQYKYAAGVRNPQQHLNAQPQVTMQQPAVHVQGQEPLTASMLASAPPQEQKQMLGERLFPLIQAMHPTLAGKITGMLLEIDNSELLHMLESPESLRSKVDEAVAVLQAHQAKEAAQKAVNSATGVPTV
eIF4H inh retest – recorded beside eIF4H inh, whose call it bears; inhibition, %; compound at 20 µM; confirmation average;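 mean of two retest wells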
PABP polyA inh retest – further read-out of PABP polyA inh, marked with its call; inhibition, %; compound at 20 µM; confirmation repeats;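 mean of two retest wells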
MT1-MMP act inh RFP – further read-out of MT1-MMP act inh, marked with its call; RFP signal change, %; measured here: RFP expression control read;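 0 = vehicle wells; hits needed this value within 50% of zero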
Starred values were filed as active, the others as inactive; i = inactive; ? = inconclusive; nt = no result given.

SMILES	Yeast UUG start	eIF4H inh	CSC inhib	MT1-MMP act inh	MT1-MMP act inh RFP	HIV Env fusion	Rce1 inhib	PABP polyA inh	others
CCCCCc1cc(=O)oc2c(C(CCN3CCCC(C)C3)c3cc(OC)c(OC)c(OC)c3)c(OC)cc(OC)c12 (centres undefined)	25	-8	102*	2	-7	nt	i	-9
CC1=C(C(=O)OCc2ccccc2)C(c2ccc(C(C)(C)C)cc2)NC(=O)N1CCCCCC(=O)O (centres undefined)	-11	0	5	15	-2	21	i	5
O=C(Nc1ccc(N2CCCC2)cc1)c1cccc(Cl)c1	-43	-7	9	5	1	-164	i	66	eIF4H inh retest=6;PABP polyA inh retest=3
CCN(CC)S(=O)(=O)c1ccc(N2CCOCC2)c(NC(=O)c2sccc2C)c1	-11	nt	-15	-3	-3	24	nt	nt
OCC[C@H]1C[C@@H](O)[C@H](O)[C@]2(CCc3ccccc3O2)O1	-14	nt	6	1	3	0	nt	nt
Cc1ccccc1C(=O)c1cccn1CC(=O)NCC1CCCO1 (centres undefined)	-10	-7	-12	-1	0	nt	i	-2
COCCC(=O)N1CCC(Oc2ccc(C(=O)NC3CCOC(C)(C)C3)cc2)CC1 (centres undefined)	-8	-7	-5	-3	-2	-4	i	-8
COc1ccc([N+](=O)[O-])cc1NC1CCCCC1	-12	-3	16	4	2	33	i	6
COc1ccc(NC(=O)CC(NCCc2ccccc2)C(=O)O)c(OC)c1 (centres undefined)	4	-6	-12	2	1	-59	i	0
O=C(NC1CCCC1)c1cc(-c2ccc(F)cc2)on1	-19	0	6	5	4	-31	i	7
COC(=O)CCS(=O)(=O)c1ccc(NC(C)=O)cc1	-19	-10	-7	7	5	nt	i	-6
NCCNc1ccc(C(=O)N2c3ccccc3Sc3ccccc32)cc1[N+](=O)[O-]	-20	-17	92*	0	-9	7	i	-9
CCOc1ccc2nc(NC(=O)C3CCN(S(=O)(=O)c4cnc[nH]4)CC3)sc2c1	-18	-5	nt	-1	0	18	i	0
O=C(Nc1ccccn1)c1cc2cc([N+](=O)[O-])ccc2s1	-13	-13	1	-5	-16	-116	i	-3
C[C@]12CC[C@@H]3c4ccc(O)cc4[C@@H](O)C[C@H]3[C@@H]1CC[C@@H]2O	1	-7	-6	nt	nt	nt	i	-6
CCC1CCCCN1Cc1nc2c(c(=O)n(C)c(=O)n2C)n1Cc1cccc2ccccc12 (centres undefined)	-3	-10	-5	2	3	nt	i	2
COc1cc(O)c(C(CC(=O)N2CCCCC2)c2cc(OC)c(OC)c(OC)c2)c(OC)c1 (centres undefined)	10	-1	-14	1	5	0	i	0
Cc1ccc(-n2c(=O)[nH]c3c(oc4ccccc43)c2=O)cc1	nt	-1	14	1	1	7	i	-3
COc1ccc(CCC(=O)NNC(=O)Nc2ccc(C(C)C)cc2)cc1	-11	-11	8	2	-1	2	i	7
Cc1cc2oc(=O)cc(-c3ccccc3)c2c(C)c1-c1ccc(F)c(Cl)c1	-19	nt	nt	-1	-8	23	nt	nt
O=C(NCc1ccccc1)C1=C[C@H](c2coc3ccccc3c2=O)C[C@H](OCCCCO)O1	-12	6	18	2	-3	20	i	1
CCN(CC)S(=O)(=O)c1ccc(C)c(NC(=O)COC(=O)C=C(C)C)c1	180*	-3	-2	3	-7	0	i	-2
O=C1/C(=C\c2ccc3ccccc3c2)CCCc2ccccc21	-31	-14	56	-2	-6	6	i	-8
CCC(=O)N1CCc2cc(-c3csc(NC(=O)c4ccco4)n3)ccc21	-15	0	6	0	1	-25	i	1
CCCc1[nH]nc2c1C(c1ccc(OC)c(Cn3nc(C)c(Br)c3C)c1)C(C#N)=C(N)O2 (centres undefined)	-24	14	-8	4	-4	-23	i	6
Nc1cc(S(=O)(=O)Nc2cc(Cl)ccc2Cl)ccc1N1CCCC1	nt	-3	31	2	-8	1	i	8
O=C(CSc1nnc(COc2ccccc2)o1)N1CCOCC1	nt	-3	-20	1	4	6	i	-4
O=C(O)CCN1C(=O)/C(=C2\C(=O)N(Cc3ccc(F)cc3)c3ccccc32)SC1=S	-4	30	-4	-6	0	16	nt	29
COc1ccc(/C=C/C(=O)OCC(=O)Nc2cccc(Oc3ccccc3)c2)c(OC)c1	nt	-8	-8	4	2	-8	i	3
CC(=O)Nc1cc(C(=O)NCc2ccco2)ccc1Sc1ccc(Cl)cc1	nt	8	12	-5	-5	36	i	-2
CC(C(=O)Nc1ccc(C#N)cc1)N(C)CC(=O)Nc1ccccc1Br (centres undefined)	nt	-15	12	-1	-6	15	i	3
CC1(C)CC(=O)C(CC(=O)Nc2ccc(S(N)(=O)=O)cc2)=C(O)C1	-8	-5	-7	3	-1	-86	i	8
CN(CCc1cn[nH]c1)C(=O)CC1C(=O)NCCN1Cc1ccccc1C(F)(F)F (centres undefined)	nt	8	4	-4	-3	-6	i	8
COc1ccc(CN2CC(=O)N(c3cccc(Cl)c3)C2=S)cc1OC	-20	-6	-14	1	-6	21	i	-2
CN(C)S(=O)(=O)c1ccc(C(=O)Oc2coc(CSc3ncccn3)cc2=O)cc1	nt	4	-11	1	6	8	i	1
CCCC(=O)N1CCN(c2nc3ccc(Br)cc3s2)CC1	-5	-10	-12	-5	-24	-12	i	3
Cc1cccc(NC2SC(=O)NC2=O)c1 (centres undefined)	-25	6	-3	-4	1	25	i	-12
Cc1ccc(Cn2c(C(CO)Nc3nc(-c4ccc(Cl)c([N+](=O)[O-])c4)cs3)nc3ccccc32)cc1 (centres undefined)	-15	nt	23	7	-6	23	i	nt
Cc1cccc(NC(=O)c2ncn3c2C(=O)N(C)CC3)c1	-10	nt	nt	1	3	11	nt	nt
Cc1cc(C)n2c(SCc3cccs3)nnc2n1	-6	-3	-20	-1	0	-27	i	10
COC(=O)c1[nH]c2cc(C)ccc2c1NC(=O)CN1CCOCC1	nt	-6	-2	0	1	6	i	4
CSc1ccc(OC2(C)CCN(Cc3ccc(OC(F)(F)F)cc3)C2)cc1 (centres undefined)	-4	nt	nt	-2	1	26	nt	nt
Nc1nc(SCc2ccc(Cl)cc2Cl)ns1	-7	2	6	2	0	-43	i	-6
CCOC(=O)c1cc(=O)c2ccc(OCC(=O)Nc3ccccc3)cc2o1	nt	0	12	4	2	-9	i	0
COc1cccc2c1C(=O)c1ccc3ccccc3c1C2=O	7	16	39	8	-1	nt	i	12
Clc1ccccc1-c1nnn(Cc2ccc(-c3nn[nH]n3)cc2)n1	-27	11	-14	1	4	nt	i	6
COc1ccc(Br)cc1/C=c1\sc2nc(-c3ccco3)nn2c1=O	-7	94*	-4	-9	0	nt	i	87*
COc1ccc(N/N=C(C)/C(=N/O)C(=O)Nc2ccccc2)cc1	-14	4	11	-2	1	10	i	11
Clc1ccccc1OCCN1CCC(Cc2ccccc2)CC1	-14	2	37	-2	2	-31	i	-2
NCCCNc1ccc([N+](=O)[O-])cc1C(F)(F)F	nt	4	-10	2	-1	10	i	1
COCCSc1ccccc1C(=O)Nc1ccccc1C#N	3	-3	-4	0	8	-15	i	-3
Cc1ccc(OCc2cc(C(=O)NC(C)Cc3cccc(C)n3)no2)cn1 (centres undefined)	-1	-8	-9	1	-13	-27	i	10
Cc1noc(C)c1COC(=O)c1ccccc1NC(=O)Cc1ccccc1	-4	-11	-4	5	1	4	i	8
CCOCC(=O)Nc1ccc(Br)c(C)c1	nt	-17	-6	3	4	-10	i	-10
COc1ccc(-c2nc(CS(=O)CC(=O)NC3CCCCC3)c(C)o2)cc1 (centres undefined)	-5	-11	-2	2	3	6	i	-3
Cc1cccc(C(=O)NNC(=O)CCn2nnc3ccccc32)c1	nt	-4	-8	0	5	2	i	-7
COc1ccc(CCNC(=O)Cn2nnc3ccccc3c2=O)cc1	nt	1	16	0	1	nt	i	-5
CCOC(=O)N1CCC(NC(=O)CCc2c(C)nc3nc(C)nn3c2C)CC1	-24	-6	-13	-3	2	-10	nt	7
COCCN(C(=O)CNC(=O)c1cccs1)C(C(=O)NC1CCCC1)c1cccs1 (centres undefined)	-2	2	nt	1	-1	nt	i	-3
O=C(NCCN1C(=O)S/C(=C\c2cccnc2)C1=O)C1CC(=O)N(Cc2ccco2)C1 (centres undefined)	nt	-2	-9	0	6	10	nt	4

(further entries)
SMILES	Yeast UUG start	eIF4H inh	CSC inhib	MT1-MMP act inh	MT1-MMP act inh RFP	HIV Env fusion	Rce1 inhib	PABP polyA inh	others
O=C(COC(=O)c1ccc(F)cc1)NCC1CCCCC1	9	nt	-8	-3	-1	nt	nt	nt
C1=C(c2ccc(-c3ccccc3)cc2)Nc2ncnn2C1c1ccco1 (centres undefined)	-13	?	nt	-175	3	nt	nt	?
CC(=O)c1cccc(NC(=O)Cn2cnc(S(=O)(=O)N3CCc4ccccc43)c2)c1	6	-4	-3	5	-6	5	i	-11
FC(F)(F)c1nnc(-c2ccccc2)nc1Sc1ccc(Cl)cc1	-15	-1	80*	-12	-12	-25	i	1
O=C(CSCC(=O)NCc1ccco1)NCc1ccco1	-23	-4	0	7	4	nt	i	1
CCn1cnc2c(cnn2-c2ccccc2)c1=O	-9	-3	-13	3	-1	nt	i	-7
COc1ccc(CNC(=O)C/C(C)=N/NC(=O)c2ccccc2OC)cc1	-14	-3	-8	-1	6	2	i	-3
CN(C(=O)COC(=O)c1ccccc1OCc1ccc(Cl)cc1)c1c(N)n(Cc2ccccc2)c(=O)[nH]c1=O	-18	nt	-5	-5	-8	-147	i	nt
CCOC(=O)N1CCN(c2ccc(C(C)=O)cc2F)CC1C (centres undefined)	nt	-3	0	1	2	-1	i	5
COc1cccc(-n2cnc(=O)c3cccnc32)c1	nt	-4	-3	-1	3	-28	i	5
NS(=O)(=O)c1cc(C(=O)N2CCNC(=O)C2)ccc1Cl	nt	-5	-20	-2	2	3	i	9
COCCNC(=O)Cc1ccc(F)cc1	nt	-4	-4	1	7	-3	i	14
CC1(C(=O)NCC2CC2)Cc2c(-c3cccc(C(F)(F)F)c3)ccnc2O1 (centres undefined)	-11	nt	nt	-11	-14	-5	nt	nt
CS(=O)(=O)Nc1nc2n(n1)C(c1ccccc1)C=C(c1ccc(Br)cc1)N2 (centres undefined)	nt	76*	2	-158	1	nt	i	11*	eIF4H inh retest=84*;PABP polyA inh retest=81*
Cc1ccc(NC(=O)CSc2nc3nc(C)cc(C)c3c(=O)[nH]2)cc1	20	-11	-5	0	6	-26	i	-3
CCN1CCN(c2nc3c(C)cccn3c(=O)c2/C=C(\C#N)C(=O)NCCOC)CC1	-13	13	-3	0	3	5	i	11
COc1ccc(/C=N/NC(=O)c2cc(C)n(-c3ccccc3)c2C)cc1OC	nt	-7	-1	4	3	1	i	4
NC(=S)Nc1cccc2cccnc12	-11	2	0	1	1	nt	i	2
CN1CCN2c3ncccc3Cc3ccccc3[C@@H]2C1	-13	-3	0	-3	-2	25	i	-7
